GIRK2 activ = activators of human GIRK2 potassium channels. 63,000 tested, 0.05% active. AID 1259325, 2017. calls only for hits at 25 µM. G protein-activated inward rectifier potassium channel 2 (Homo sapiens), P48051. HEK293-GIRK2 thallium flux, Thallos fluorescence;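 active means among the strongest 0.2% of first-round signals and kept after retests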;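 further: first round at about 10 µM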
Target sequence (P48051 whole entry, looked up): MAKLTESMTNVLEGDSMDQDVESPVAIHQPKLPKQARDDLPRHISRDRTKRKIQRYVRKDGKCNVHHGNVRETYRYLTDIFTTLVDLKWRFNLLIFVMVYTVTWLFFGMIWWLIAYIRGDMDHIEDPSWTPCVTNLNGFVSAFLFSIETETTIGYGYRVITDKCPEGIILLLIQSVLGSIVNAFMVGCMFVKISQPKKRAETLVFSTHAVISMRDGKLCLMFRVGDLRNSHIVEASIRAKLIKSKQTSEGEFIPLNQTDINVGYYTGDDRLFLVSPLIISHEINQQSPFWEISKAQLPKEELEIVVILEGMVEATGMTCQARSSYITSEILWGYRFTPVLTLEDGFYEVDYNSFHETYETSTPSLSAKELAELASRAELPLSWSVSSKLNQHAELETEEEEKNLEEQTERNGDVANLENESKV
Calls only; i = inactive. An excerpt. The share of hits here may be higher or lower than overall.

SMILES | GIRK2 activ
COc1ccccc1-c1noc(CN2C(=O)COc3cc(Cl)ccc32)n1 | i
CCCc1nnsc1C(=O)Nc1nc(-c2nc3ccccc3s2)cs1 | i
O=c1ccc(-c2ccc(F)cc2)nn1Cc1nc(-c2cccs2)no1 | i
CCCCNC(=O)c1cccc(-n2ccnc2SCC(=O)Nc2c(C)cccc2C)c1 | i
O=C(NCC1CCC(c2nc3ccccc3[nH]2)CC1)c1cccnc1 (centres undefined) | i
Cc1cccc(CSC2=NCCN2S(=O)(=O)c2ccc(Br)cc2)c1 | i
Cc1cc(C(O)CCNS(=O)(=O)c2c(C)noc2C)c(C)o1 (centres undefined) | i
Cn1cccc1C(CNC(=O)c1ccc(F)cc1)N1CCCC1 (centres undefined) | i
COc1cccc(C(O)=C2C(=O)C(=O)N(c3ccccn3)C2c2ccc([N+](=O)[O-])cc2)c1 (centres undefined) | i
Cc1cccc(NC(=O)Cn2c(=O)n(Cc3cccs3)c(=O)c3ncccc32)c1 | i
COc1ccc(-c2cc3c(=O)n(CC(N)=O)ncn3n2)cc1 | i
O=C(NC1C2CC3CC(C2)CC1C3)c1cccc(Cl)c1 (centres undefined) | i

2 entries picked at random from those above, as already listed:
SMILES | GIRK2 activ
O=c1ccc(-c2ccc(F)cc2)nn1Cc1nc(-c2cccs2)no1 | i
O=C(NCC1CCC(c2nc3ccccc3[nH]2)CC1)c1cccnc1 (centres undefined) | i

Remaining list, next part:
SMILES | GIRK2 activ
CCS(=O)(=O)N1CCCc2ccc(NS(=O)(=O)c3ccc(OC)c(F)c3)cc21 | i
COc1cc(C)c(Cl)cc1S(=O)(=O)NCc1ccccn1 | i
COc1ccc(C2CCN(S(=O)(=O)c3ccccc3Cl)C2)cc1 (centres undefined) | i
O=C(CCc1ccccc1)N1CCN(Cc2ccsc2)CC1 | i
CCc1ccc(NC(=O)Cn2nc(-c3ccc(F)cc3)c3sc(N4CCCC4)nc3c2=O)cc1 | i
CC(=O)c1cc(C)ccc1OC(=O)c1ccc(Cl)cc1 | i
Nc1c(C(=O)NCC2CCCO2)c2nc3ccccc3nc2n1/N=C\c1ccccn1 (centres undefined) | i
O=C(NCC(F)(F)F)c1c[nH]c2ccccc12 | i
COc1ccc(OCCC(=O)NCCN2CCOCC2)cc1 | i
COc1ccc(S(=O)(=O)NCC2CCN(C(=O)c3ccoc3)CC2)c(C)c1 | i
CCCN(C)c1nccn2c(=O)n(CC(=O)Nc3cccc(OC)c3)nc12 | i
CC(=O)NS(=O)(=O)c1ccc(NC(=O)c2coc(NC(=O)C3CC3)n2)cc1 | i
CCOC(=O)CN1C(=O)CSC1=O | i
COc1cccc(NC(=O)Nc2nccn(-c3ccc(F)c(F)c3)c2=O)c1 | i
O=C(Cn1cccc(S(=O)(=O)N2CCOCC2)c1=O)Nc1ccccc1Cl | i
Cc1ccc(C(=O)N(C(=O)N2CCCCC2)c2ccccc2)cc1[N+](=O)[O-] | i
CCCNC(=O)Cn1nc2c(c1NC(=O)c1cccc(F)c1)CSC2 | i
CCOC(=O)c1ccc(NC(=O)N(C)C)cc1 | i
Cc1ccc(-c2nonc2NC(=O)COc2cccc(C)c2)cc1 | i
O=S(=O)(NCCN1CCN(c2ccc(Cl)cc2)CC1)c1ccccc1F | i
CCCCCC(O)/C=C/[C@H]1C(O)CC(O)C1C/C=C/CCCC(=O)O (some centres undefined) | i
O=C(Cc1ccccc1)Nc1cnc(N2CCOCC2)nc1 | i
CCCc1nnsc1C(=O)Nc1ccc(CC(=O)NC2CC2)cc1 | i
COc1cccc(OC)c1C(=O)N1CCN(c2ncnc3c2nnn3-c2ccccc2)CC1 | i
COc1ccc(C(=O)N(C(=O)N2CCCCC2)c2ccccc2)cc1OC | i
O=C1CCCN1CCCN1COc2ccc3c(=O)c(-c4ccccc4)c(C(F)(F)F)oc3c2C1 | i
CCOC(=O)c1c(S(=O)(=O)N2CCN(C3CCCCC3)CC2)n[nH]c1C | i
CCCC(=O)NC(C)c1nc2ccccc2n1Cc1ccc(C)cc1 (centres undefined) | i
O=S(=O)(NCCNc1ccc(-n2cccc2)nn1)c1ccc(OC(F)(F)F)cc1 | i
O=S(=O)(NCCC(O)C1CC1)c1cccc2ccccc12 (centres undefined) | i
C/C(=C\Cc1c(O)cc(C)c(C=O)c1O)CC[C@@]1(C)[C@H](C)CCC(=O)[C@@H]1C | i
O=C(CCc1ccccc1)Nc1cc(-c2cccs2)nn1-c1nc2c(c(=O)[nH]1)CCC2 | i
O=C(CSc1nnc2ccc(C(=O)Nc3cccc(F)c3)cn12)Nc1ccc2c(c1)OCO2 | i
COc1ccc2c(c1)CCN(C(=O)C1CSc3ncc(C)c(=O)n3C1)C2 (centres undefined) | i
O=C(NCCC(O)c1cccc2ccccc12)Nc1ccc2c(c1)OCO2 (centres undefined) | i
CC(C)(C)C(=O)NCC(C)(O)c1ccco1 (centres undefined) | i
CCCCSc1nnc(NC(=O)c2cn(C)nc2OC)s1 | i
CCOC(=O)N1CCN(C(=O)CN2CCN(Cc3nc4ccccc4n3C)CC2)CC1 | i
Cc1cc(C(=O)Nc2nc3ccc4nc(C)sc4c3s2)on1 | i
O=C(COc1ccc(Cl)cc1)NCCc1ccoc1 | i
COc1ccc(Nc2oc(-c3ccc(S(=O)(=O)N4CCOCC4)cc3)nc2C#N)cc1 | i
O=C(Nc1ccc(C(F)(F)F)cc1)C(=O)N1CCN(c2cccc(Cl)c2)CC1 | i
C=C(C)COc1ccc(-c2nc(N)ncc2-c2ccc(Br)cc2)c(O)c1 | i
Cc1cc(NC(=O)C2(c3ccccc3)CCOCC2)n(CCO)n1 | i
O=C(NCC1CCN(Cc2ccsc2)CC1)Nc1cccs1 | i
O=C(c1ccc(F)c(F)c1)N1CCCC(c2nnc(-c3ccc4c(c3)OCO4)o2)C1 (centres undefined) | i
COc1nn(C)cc1C(=O)NCC1(c2ccc(F)cc2)CC1 | i
CCn1c(-c2nonc2N)nc2c(C#CC(C)(C)O)ncc(OCC3CCNCC3)c21 | i
Cc1cc(CN2CCC(CNC(=O)c3cc4ccccc4oc3=O)CC2)c(C)o1 | i
O=C(Nc1ccccc1-c1ccc(=O)[nH]n1)c1cccc(Cl)c1 | i
COc1ccccc1-c1coc2c3c(ccc2c1=O)OCN(Cc1ccccc1)C3 | i
CC(C)CCNC(=O)CSc1nnc2n(CCC(=O)NC(C)C)c(=O)c3ccccc3n12 | i
O=C(CCCS(=O)(=O)Cc1ccccc1)Nc1ccc(-c2nc3ccccc3[nH]2)cc1 | i
CN1CCC(C(=O)Nc2n[nH]c3nnc(-c4ccccc4)cc23)CC1 | i
COc1ccccc1-c1nc(C#N)c(N2CCN(C(=O)c3ccccc3)CC2)o1 | i
O=C(CC1CCCCC1)NCCCS(=O)(=O)N1CCN(c2ncccn2)CC1 | i
COc1cc(OC)c(NC(=O)C2CCN(c3cnc4ccccc4n3)CC2)cc1Cl | i
CCCC(=O)Nc1ccc(S(=O)(=O)NCCOc2cccc(C(F)(F)F)c2)cc1 | i
Cn1nnn(-c2ccc(NS(=O)(=O)c3ccc4c(c3)CCCC4)cc2)c1=O | i
Cc1ccc(C)c(NC(=O)Cn2c(=O)n(-c3ccc(CC(=O)NC4CC4)cc3)c(=O)c3ccccc32)c1 | i
New compounds follow
SMILES | GIRK2 activ
O=C(c1cccc(Br)c1)N1CCC2(O)CCCCC2C1 (centres undefined) | i
O=C(NCc1ccc(F)c(Cl)c1)C1CCN(c2cc(Oc3ccccc3)ncn2)CC1 | i
CCNC(=O)C1Cc2ccccc2N1C(=O)c1ccc(S(=O)(=O)N2CCCC2)cc1 (centres undefined) | i
Cc1nc(C)c(-c2nnc(NC(=O)CN3C(=O)CCC3=O)o2)s1 | i
O=c1c2nnc(-c3ccc([N+](=O)[O-])cc3)n2ccn1-c1ccc(F)c(F)c1 | i
CC(Nc1nc2c(c(=O)[nH]c(=O)n2C)n1Cc1ccccc1)c1ccccc1 (centres undefined) | i
C=C1C(=O)O[C@H]2[C@H]1[C@@H](OC(=O)/C(C)=C\C)C(OC(C)=O)C(C(=O)OC)=CCC[C@@]1(C)O[C@H]21 (some centres undefined) | i
CCCCNc1cc(C)nc2cc(-c3ccc(OC)c(OC)c3)nn12 | i
Cc1noc(CNC(=O)c2ccccc2C(F)(F)F)n1 | i
Cc1cc(C)nc(Nc2nc(CC(=O)Nc3nc(C)c(C(=O)N(C)C)s3)cs2)n1 | i
COc1ccc(OC)c(COCC(O)Cn2cnc3ccccc32)c1 (centres undefined) | i
O=S(=O)(c1ccc2c(c1)CCCC2)N1CC(c2nc(Cc3cccs3)no2)C1 | i
COc1cccc(CSc2nc(C)c(CC(=O)N3CCN(C(=O)c4ccco4)CC3)c(=O)[nH]2)c1 | i
COc1ccccc1-c1nnc(C2CCN(C(=O)Nc3cccs3)CC2)s1 | i
CCC(NCC(O)CN(c1ccc(OC)cc1)S(=O)(=O)c1ccc(C)cc1)C(=O)O (centres undefined) | i
Cc1cc(C)n(-c2ccc(=O)n(C(C)C(=O)NCc3nc4ccccc4[nH]3)n2)n1 (centres undefined) | i
O=c1c(CNc2ccccc2)cc2cccc3c2n1CCC3 | i
O=C(c1cc(=O)c2ccccc2o1)N1CCc2ccccc2C1 | i
Cc1cc(=O)n2c(-c3cccc(NC(=O)c4ccc(Br)o4)c3)csc2n1 | i
CC(C)c1nnc(C2CCN(CC(=O)Nc3ccc(Br)cc3)CC2)o1 | i
Cc1ccc(-n2c(=O)c3ccccc3n(CC(=O)NC3CCCC3)c2=O)cc1 | i
N#Cc1nc(-c2ccc(S(=O)(=O)N3CCCC3)cc2)oc1NCc1ccc2c(c1)OCO2 | i
CN1CCCC(C(=O)NCC#CCOc2ccc3c(c2)OCO3)C1 (centres undefined) | i
O=C(c1cc(Cl)ccc1Cl)N1C2CCC1COC2 | i
CCCCN1CC(c2nc3ccccc3n2CCOc2cccc(OC)c2)CC1=O (centres undefined) | i
COc1ccc(NC(=O)NCc2sc(-c3ccccc3)nc2C)c(OC)c1 | i
Cc1ccc(CSc2nc(CC(=O)Nc3ccc(-n4cnnn4)cc3)cs2)cc1 | i
COCCc1noc(C2CCN(C(=O)CCC(=O)c3ccccc3)CC2)n1 | i
O=C(NCc1cccs1)c1ccc2c(=O)n(-c3ccccc3)c(=O)[nH]c2c1 | i
Cc1noc(CNC(=O)Cc2cccs2)n1 | i
COc1ccc(F)cc1S(=O)(=O)Nc1cc2c3c(c1)CCN3C(=O)CC2 | i
CCc1cccc(Nc2nc(C)cc(=O)n2CC(=O)NCc2cccc(OC)c2OC)c1 | i
COc1cccc(CCNC(=O)Cn2nc(C)ccc2=O)c1 | i
COc1ccc(OCc2noc(CNC(=O)CSc3nc4ccccc4s3)n2)cc1 | i
CCOC(=O)c1scc(-c2ccccc2)c1S(=O)(=O)Nc1ccc(F)c(F)c1 | i
COc1ccc(Cl)cc1C(=O)N1CCOCC1CO (centres undefined) | i
Cc1ccc2[nH]c3c(=O)n(CCC(=O)NCCc4c[nH]c5ccccc45)cnc3c2c1 | i
CC(C)(Oc1ccc(Cl)cc1)C(=O)N1CCN(Cc2nnnn2-c2ccccc2)CC1 | i
CCOc1ccc(C2NC(=O)NC(C)=C2C(=O)Nc2cc(C)ccc2C)cc1OC (centres undefined) | i
Cc1csc(C(=O)N2CCOCC2CO)c1 (centres undefined) | i
COCC(C)Nc1nc(Nc2ccc(F)cc2)c2n[nH]nc2n1 (centres undefined) | i
COc1ccc(Cc2nnc(NC(=O)C3CCC3)o2)cc1 | i
CC(C(=O)Nc1ccc(F)c(Cl)c1)N1C(=O)c2ccccc2S1(=O)=O (centres undefined) | i
CCOC(=O)C1=C(C)Nc2ncnn2C1c1cccc(Cl)c1Cl (centres undefined) | i
Cn1c(=O)c2c(nc3n2CC(c2ccc(F)cc2)=NN3CC(=O)O)n(C)c1=O | i
COc1ccc(S(=O)(=O)c2c(C(=O)N3CCC(C)CC3)cnc3ccc(F)cc23)cc1OC | i
CN(C)C(CNC(=O)c1cc(=O)c2ccccc2o1)c1cn(C)c2ccccc12 (centres undefined) | i
O=C(CCSc1ccccc1)N1CCC(CSCc2ccco2)CC1 | i
COc1ccc(-n2c(=O)c3sccc3n(Cc3nc(-c4ccccc4)no3)c2=O)cc1 | i
Cc1ccc(CNC(=O)C2CCN(c3nccn4nc(-c5ccc(Cl)cc5)cc34)CC2)cc1 | i
Cc1oc(-c2cccc(Cl)c2)nc1Cn1nnc(C(=O)Nc2ccc(F)c(Cl)c2)c1N | i
CCCN(C)c1nccn2c(=O)n(CC(=O)Nc3cccc(CC)c3)nc12 | i
O=C(N=C1SC2CS(=O)(=O)CC2N1c1cccc(C(F)(F)F)c1)c1cccc([N+](=O)[O-])c1 (centres undefined) | i
Cc1cc(C(=O)N2CCC3(CC2)OCCS3)c(C)o1 | i

Entries from the list above with a Cl atom:
SMILES | GIRK2 activ
COc1ccccc1-c1noc(CN2C(=O)COc3cc(Cl)ccc32)n1 | i
O=C(NC1C2CC3CC(C2)CC1C3)c1cccc(Cl)c1 (centres undefined) | i
COc1cc(C)c(Cl)cc1S(=O)(=O)NCc1ccccn1 | i
COc1ccc(C2CCN(S(=O)(=O)c3ccccc3Cl)C2)cc1 (centres undefined) | i
CC(=O)c1cc(C)ccc1OC(=O)c1ccc(Cl)cc1 | i
O=C(Cn1cccc(S(=O)(=O)N2CCOCC2)c1=O)Nc1ccccc1Cl | i
O=S(=O)(NCCN1CCN(c2ccc(Cl)cc2)CC1)c1ccccc1F | i
O=C(COc1ccc(Cl)cc1)NCCc1ccoc1 | i
O=C(Nc1ccc(C(F)(F)F)cc1)C(=O)N1CCN(c2cccc(Cl)c2)CC1 | i
O=C(Nc1ccccc1-c1ccc(=O)[nH]n1)c1cccc(Cl)c1 | i
COc1cc(OC)c(NC(=O)C2CCN(c3cnc4ccccc4n3)CC2)cc1Cl | i
O=C(NCc1ccc(F)c(Cl)c1)C1CCN(c2cc(Oc3ccccc3)ncn2)CC1 | i
O=C(c1cc(Cl)ccc1Cl)N1C2CCC1COC2 | i
COc1ccc(Cl)cc1C(=O)N1CCOCC1CO (centres undefined) | i
CC(C)(Oc1ccc(Cl)cc1)C(=O)N1CCN(Cc2nnnn2-c2ccccc2)CC1 | i
CC(C(=O)Nc1ccc(F)c(Cl)c1)N1C(=O)c2ccccc2S1(=O)=O (centres undefined) | i
CCOC(=O)C1=C(C)Nc2ncnn2C1c1cccc(Cl)c1Cl (centres undefined) | i
Cc1ccc(CNC(=O)C2CCN(c3nccn4nc(-c5ccc(Cl)cc5)cc34)CC2)cc1 | i
Cc1oc(-c2cccc(Cl)c2)nc1Cn1nnc(C(=O)Nc2ccc(F)c(Cl)c2)c1N | i

Bioassay records (PubChem BioAssay)
